# total CFTR: compounds raising F508del-CFTR protein level – cell-based, HeLa F508del-CFTR, immunofluorescence, viability, primary screen (AID 1224863). HeLa F508del-CFTR, immunofluorescence total CFTR, 24 h; by the record results were divided by relative cell number; some inactives read as strong as hits. actives 0.1% (n = 10,000). calls, or highest fold increase where a dose series was run; in the data nearly all actives have a first-pass fold increase above 1.5; a few of its hits are not listed in these tables;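 also: total CFTR protein by anti-CFTR immunofluorescence in fixed cells; first pass at 25 µM or 10 µg/mL by library and series up to twice that; 1 = untreated cells; first-pass hits also needed half or more of the cells alive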
# total CFTR fold 25 µM: further read-out of total CFTR, marked with its call; fold increase; measured here: primary screen single dose 25 uM; library dosed in µM
# total CFTR fold 10 ug/mL: recorded beside total CFTR, whose call it bears; fold increase; measured here: primary screen 10 ug/mL
# total CFTR viability 25 µM: also measured in total CFTR; calls as there; viability, %; measured here: primary viability 25 uM; library dosed in µM;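 0% = killed and 100% = untreated cells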
# total CFTR viability 10 ug/mL: recorded beside total CFTR, whose call it bears; viability, %; measured here: primary viability 10 ug/mL;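 0% = killed and 100% = untreated cells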
# The depositor's hits bear a star; i = inactive; x = no result given; & = joins results of further samples. Only part of the results is shown; rates above refer to the full screens.
SMILES,total CFTR,total CFTR fold 10 ug/mL,total CFTR viability 10 ug/mL,others
O=C1C2CC=CCC2C(=O)N1CN1CCC(c2nc3ccccc3o2)CC1 (centres undefined),i,0.89,89,
CC1(c2cc3ccccc3o2)NC(=O)N(CC2CC2(Cl)Cl)C1=O (centres undefined),i,1,85,
CN(C)S(=O)(=O)c1ccc2oc3nnc(SCc4nc5ccccc5s4)n3c2c1,i,0.84,90,
CC(C)c1nn(CN2CCN(C(=O)OC(C)(C)C)CC2)c(=S)n1Cc1ccco1,i,1.1,99,
O=C(NCC1CCCO1)c1c(-n2cccc2)sc2c1CCCC2 (centres undefined),i,1.1,94,
Cc1ccc(-c2nc(C(=O)NC(C)c3cccs3)cs2)o1 (centres undefined),i,0.86,84,
O=C(CC1C=CCC1)Nc1cc(C(F)(F)F)ccc1N1CCCC1 (centres undefined),i,1.1,92,
CC1Cc2cc([N+](=O)[O-])ccc2N1Cn1nc(-c2cccs2)oc1=O (centres undefined),i,0.96,91,
CN(Cc1ccccc1N1CCOCC1)c1nc2ccccc2o1,i,0.86,72,
CC(C(=O)NC(N)=O)N(C)CC12CC3CC(CC(C3)C1)C2 (centres undefined),i,0.95,88,
CC(C)c1ccc(CCNC(=O)N2CCN(S(=O)(=O)N(C)C)CC2)cc1,i,0.97,97,
Cc1c(C(=O)NC(C)C2CC2)sc2nc3n(c(=O)c12)CCCCC3 (centres undefined),i,1,100,
CN(Cc1nc2ccccc2s1)S(=O)(=O)c1cc(F)cc(F)c1,i,0.96,103,
Cn1cccc1/C=C(/C#N)c1nc2ccccc2[nH]1,i,1.1,78,
CN1CCN(S(=O)(=O)c2ccc(SCc3cc(Cl)c4c(c3)OCCCO4)nc2)CC1,i,0.96,90,
COc1ccc(Cl)cc1CS(=O)(=O)c1nc2ccccc2s1,i,0.82,74,
CC1CN(S(=O)(=O)N2CCN(C(=O)Nc3ccc(Cl)c(Cl)c3)CC2)CC(C)O1 (centres undefined),i,0.82,83,
COCCNC(=O)/C=C/c1csc(C)n1,i,1,100,
C=C(C)CN1C(=O)NC(C)(c2ccccc2Br)C1=O (centres undefined),i,1,96,
c1coc(-c2nnn(Cc3cccc4ccccc34)n2)c1,i,0.91,78,
CCc1nnc(NC(=O)C(NC(C)=O)C2CCCC2)s1 (centres undefined),i,0.96,96,
O=c1cc(CN2CCCC2)nc2ccccn12,i,0.92,98,
O=C(COCC1CC1)Nc1ncn[nH]1,i,0.9,97,
O=C1NC(c2ccccc2)(c2ccccc2)C(=O)N1CN1CCc2sccc2C1c1ccccc1 (centres undefined),i,0.98,108,
CCCCCCCCCc1ccc(OCCOCCOCCOCCOCCOCCOCCOCCOCCO)cc1,i,x,x,total CFTR fold 25 µM=0.83;total CFTR viability 25 µM=82
Cn1ncc2c(=O)n(CCC(=O)NC34CC5CC(CC(C5)C3)C4)cnc21,i,1.1,95,
O=c1c2ccc(Cl)cc2nc(SCc2cc(Cl)cc3c2OCOC3)n1C1CCCCC1,i,1.1,92,
CCOC(=O)c1c(C)[nH]c(C(=O)COC(=O)c2cnccn2)c1C,i,1.1,99,
CCc1cc2c(SCC(=O)Nc3sc4c(c3C(N)=O)CCC4)ncnc2s1,i,1,107,
CC1CCN(c2n[nH]c(=S)n2Cc2ccco2)CC1,i,0.91,98,
CCCC(CCC)C(=O)O,i,x,x,total CFTR fold 25 µM=1&0.93&0.97;total CFTR viability 25 µM=102&86&80
COc1cc2c(cc1OC)CN(Cn1nc(C)n(C3CC3)c1=S)CC2,i,0.93,102,
O=C1CC(C(F)(F)F)N(C(=O)CN2C(=O)NC3(CCCc4ccccc43)C2=O)c2ccccc2N1 (centres undefined),i,1.2,102,
CN(C)S(=O)(=O)c1ccc2c(c1)CCN2Cc1ccc(OC(F)(F)F)cc1,i,1.3,88,
COc1ccc(C2C(=O)c3ccccc3C2=O)cc1,i,x,x,total CFTR fold 25 µM=1;total CFTR viability 25 µM=87
CN(Cc1ccsc1)C(=O)NCC12CC3CC(CC(C3)C1)C2,i,0.95,112,
CC(C)(C)n1nnnc1SCC#N,i,0.98,91,
Cc1ccc(CN(C)C(=O)NC2CC(C)(C)NC(C)(C)C2)c(C)c1,i,1,98,
Fc1ccc(Nc2nc3ccccc3s2)cc1Cl,i,0.96,84,
NCCCC(=O)O,i,x,x,total CFTR fold 25 µM=1.1;total CFTR viability 25 µM=86
CC(C)(C)C(=O)CSc1ncnc2sccc12,i,1,88,
CN(C)C1(CNc2ccc(S(=O)(=O)N3CCOCC3)cc2[N+](=O)[O-])CCCCCC1,i,0.94,93,
Cc1nc(SCc2cc(Cl)cc3c2OCOC3)c(C#N)c(C)c1C,i,0.95,90,
NC(c1ccccc1)c1ccc(F)cc1 (centres undefined),i,0.97,99,
CC1(c2cc(F)ccc2F)NC(=O)N(Cc2cc(Cl)cc3c2OCOC3)C1=O (centres undefined),i,0.89,107,
O=S(=O)(Nc1cc(F)cc(F)c1)c1ccc2ccccc2c1,i,0.99,95,
CCN(Cc1ccc(Br)s1)CN1C(=O)NC(CC(C)C)C1=O (centres undefined),i,1.1,92,
CC1CCc2c(sc3ncnc(OCC(=O)NC4CCCC4)c23)C1 (centres undefined),i,1,86,
Cn1nc([N+](=O)[O-])c(Cl)c(Cl)c1=O,i,0.69,3,
OCc1ccc(OCc2ccccc2)c(Br)c1,i,1.2,95,
O=C(CSc1nnnn1CC1CCCO1)N(Cc1ccco1)C12CC3CC(CC(C3)C1)C2 (centres undefined),i,0.95,91,
Cc1ccc(S(=O)(=O)N(C2CC2)C(C)C2CC2)c(Br)c1 (centres undefined),i,0.89,67,
O=C1CCc2cc(C(=O)OC3CCOC3=O)ccc2N1 (centres undefined),i,1.2,102,
CCCCCCCCCCCCCCCC(=O)OC/C=C(C)/C=C/C=C(C)/C=C/C1=C(C)CCCC1(C)C,i,x,x,total CFTR fold 25 µM=1.3;total CFTR viability 25 µM=118
Cc1cccc(N(C)C(=S)Oc2ccc3ccccc3c2)c1,i,x,x,total CFTR fold 25 µM=1.1;total CFTR viability 25 µM=77
CC1(c2ccc(S(C)(=O)=O)cc2)NC(=O)NC1=O (centres undefined),i,1.1,92,
CCc1cc(Cl)c(OC)c(C(=O)NCC2CCCN2CC)c1O (centres undefined),i,x,x,total CFTR fold 25 µM=1.1;total CFTR viability 25 µM=101
Fc1ccc(-c2nnc(CSc3ncccn3)o2)cc1,i,1,88,
Fc1ccccc1-n1cnn(CN2CCN(c3ncccn3)CC2)c1=S,i,0.98,82,
CC(C)CCC(C)NC(=O)COC(=O)c1cc([N+](=O)[O-])cn1C (centres undefined),i,1.3,87,

# (listing goes on)
SMILES,total CFTR,total CFTR fold 10 ug/mL,total CFTR viability 10 ug/mL,others
CC(=O)Oc1c(C)cccc1C(=O)O,i,x,x,total CFTR fold 25 µM=0.97;total CFTR viability 25 µM=93
CC(C[N+](C)(C)C)OC(N)=O (centres undefined),i,x,x,total CFTR fold 25 µM=1.2&1.1&0.96;total CFTR viability 25 µM=84&89&80
Cn1nnnc1SCc1nc2ccccc2c2ccccc12,i,1.1,103,
CCONC(=O)c1cccs1,i,0.96,88,
CC(C)(C)NC(=O)CCNC(=O)c1ccoc1,i,1.1,101,
CC(SC(F)(F)F)C(=O)Nc1ncn[nH]1 (centres undefined),i,0.97,89,
CC(=O)c1c(SCC(=O)NC2CC2)nc(=O)[nH]c1C,i,1,104,
O=C1NC2(CCOc3ccccc32)C(=O)N1CC(=O)N1c2ccccc2SCC1c1ccccc1 (centres undefined),i,0.97,97,
NCC1CCCCC1CC(=O)O (centres undefined),i,x,x,total CFTR fold 25 µM=1.1;total CFTR viability 25 µM=88
O=[N+]([O-])c1cc(S(=O)(=O)N2CCN(Cc3ccc4c(c3)CCO4)CC2)ccc1Cl,i,1.1,101,
CCCCn1c(=O)[nH]c(=O)c2c1nc(CSc1nnc(-c3ccoc3C)o1)n2C,i,1.1,93,
O=C(CCSc1nnnn1C1CC1)Nc1ccnn1C1CCCC1,i,1.2,91,
O=C1C2CCCCN2C(=O)N1CC(O)COC(c1ccccc1)c1ccccc1 (centres undefined),i,1.1,87,
COC(=O)c1ccc(=O)c2nc3/c(=C/O)c(O)cc(=O)c3[nH]c12,i,x,x,total CFTR fold 25 µM=0.9;total CFTR viability 25 µM=79
CCCn1nnnc1CSc1nc(C)nc2sc3c(c12)CCC3,i,1.1,100,
CC(=O)Nc1cccc(O)c1,i,x,x,total CFTR fold 25 µM=1.1;total CFTR viability 25 µM=100
c1ccc(Cn2ncc3c2CCCC3NCc2ccccn2)cc1 (centres undefined),i,1.1,108,
CO/N=C(/C(=O)N[C@@H]1C(=O)N2C(C(=O)O)=C(COC(C)=O)CS[C@H]12)c1csc(N)n1,i,x,x,total CFTR fold 25 µM=1.1;total CFTR viability 25 µM=87
O=C(Cn1nnc(-c2ccco2)n1)NC1CC1,i,1.1,84,
CN(Cc1ccc2c(c1)OCO2)S(=O)(=O)c1ccc(Cl)cc1C(F)(F)F,i,0.94,114,
CN1CCCN(C(=O)C2CCN(c3nc4ccccc4o3)CC2)c2nc3ccccc3nc21,i,1,94,
COc1ccc(C2CCCN2S(=O)(=O)N2CC(C)OC(C)C2)cc1OC (centres undefined),i,1.1,98,
CC(C(=O)Nc1sc2c(c1C(N)=O)CCC2)N1CCN(C(=O)C2CC2)CC1 (centres undefined),i,1.1,92,
O=[N+]([O-])c1ccc(N2CCc3ccccc32)nc1,i,0.86,96,
Cc1cc(SCC2CSc3nnc(-c4cccnc4)n32)nc(C)n1 (centres undefined),i,0.93,83,
CSc1nncn1-c1cccc(NC(=O)CC2c3ccccc3C=CN2C(C)=O)c1 (centres undefined),i,0.82,66,
CCC1=C[C@H]2CN(C1)Cc1c([nH]c3ccccc13)C(C(=O)OC)(c1cc3c(cc1OC)N(C)[C@H]1[C@@](O)(C(=O)OC)[C@H](OC(C)=O)[C@@]4(CC)C=CCN5CC[C@]31[C@H]54)C2 (some centres undefined),i,x,x,total CFTR fold 25 µM=0.8;total CFTR viability 25 µM=75
S=c1n(-c2ccccc2)cnn1CN(Cc1ccncc1)C1CC1,i,0.96,101,
CC(=O)N(O)CCCCCNC(=O)CCC(=O)N(O)CCCCCNC(=O)CCC(=O)N(O)CCCCCN,i,x,x,total CFTR fold 25 µM=1.2;total CFTR viability 25 µM=88
COCCn1c(C)c(C)[nH]c1=S,i,1.1,98,
CC1CCNc2ccccc21 (centres undefined),i,0.98,79,
CNC[C@H](O)c1ccc(O)c(O)c1,i,x,x,total CFTR fold 25 µM=1.1&1&1;total CFTR viability 25 µM=89&103&90
CS(=O)(=O)N1CCCN(c2ncnc3scc(-c4ccc(Br)cc4)c23)CC1,i,1.1,92,
Cc1ccc(-c2nc3c(nc2-c2ccc(C)cc2)CCCC3)cc1,i,1,97,
COCCN1C(=S)NC(c2ccccc2)C(C(=O)OC)=C1C (centres undefined),i,0.99,96,
CC(C)NS(=O)(=O)c1ccc(NC2CCc3ccccc32)c([N+](=O)[O-])c1 (centres undefined),i,0.74,89,
O=C1c2ccccc2S(=O)(=O)NN1Cc1ccc(Br)cc1,i,0.99,110,
Brc1ccccc1CN1CCN(c2cnccn2)CC1,i,0.96,83,
CCn1cnn(CN2CCc3ccccc3C2)c1=S,i,1.1,110,
CO/N=C(/C(=O)N[C@@H]1C(=O)N2C(C(=O)OCSC(=O)c3ccco3)=CCS[C@H]12)c1csc(N)n1,i,x,x,total CFTR fold 25 µM=1;total CFTR viability 25 µM=96

# Structural class: the compounds so far with fluorine (12)
SMILES,total CFTR,total CFTR fold 10 ug/mL,total CFTR viability 10 ug/mL,others
O=C(CC1C=CCC1)Nc1cc(C(F)(F)F)ccc1N1CCCC1 (centres undefined),i,1.1,92,
CN(Cc1nc2ccccc2s1)S(=O)(=O)c1cc(F)cc(F)c1,i,0.96,103,
O=C1CC(C(F)(F)F)N(C(=O)CN2C(=O)NC3(CCCc4ccccc43)C2=O)c2ccccc2N1 (centres undefined),i,1.2,102,
CN(C)S(=O)(=O)c1ccc2c(c1)CCN2Cc1ccc(OC(F)(F)F)cc1,i,1.3,88,
Fc1ccc(Nc2nc3ccccc3s2)cc1Cl,i,0.96,84,
NC(c1ccccc1)c1ccc(F)cc1 (centres undefined),i,0.97,99,
CC1(c2cc(F)ccc2F)NC(=O)N(Cc2cc(Cl)cc3c2OCOC3)C1=O (centres undefined),i,0.89,107,
O=S(=O)(Nc1cc(F)cc(F)c1)c1ccc2ccccc2c1,i,0.99,95,
Fc1ccc(-c2nnc(CSc3ncccn3)o2)cc1,i,1,88,
Fc1ccccc1-n1cnn(CN2CCN(c3ncccn3)CC2)c1=S,i,0.98,82,
CC(SC(F)(F)F)C(=O)Nc1ncn[nH]1 (centres undefined),i,0.97,89,
CN(Cc1ccc2c(c1)OCO2)S(=O)(=O)c1ccc(Cl)cc1C(F)(F)F,i,0.94,114,

# Source: PubChem BioAssay
